Hedgehog inh – blocks Sonic Hedgehog signaling; Shh-LIGHT2 Gli-luciferase reporter, 30 h; inhibition, % (concentration not given with the values); 22,000 compounds, 2.1% hits;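 active = replicate mean of 65% or more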;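 note: pathway switched on by Shh-conditioned medium diluted 1 in 25 in low serum; 100 nL library stock added to about 40 µL; 0% = median of neutral wells and 100% = positive control level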
MITF inh – blocks MITF activity | TRPM1 promoter luciferase, luminescence, 24 h | AID 2240 | 37,000 compounds, 0.28% hits | inhibition, % (no concentration beside the values);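 active = most replicates at 85% or more, or half of them and the mean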;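 note: human melanocyte line stably carrying TRPM1 promoter luciferase reporter; 0% = vehicle wells and 100% = a positive control; the first replicate is given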
PD-1 reverse act – activators reversing PD-1 mediated T-cell inhibition | activation, % (test concentration not listed) | AID 2316 | 29,000 tested, under 10 active | primary human CD4 T cells, PD-L1 beads, CellTiter-Glo 96 h;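 active = replicate mean of 50% or more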;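 note: 0% = median vehicle wells and 100% = positive control; 100 nL library stock added to about 50 µL; numbers are from one replicate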
YB-1 expr inh – YB-1 expression inhibition. U2OS, qRT-PCR YB-1 vs CDIP delta delta Cp, 16 h; active compounds read high; zero = DMSO, each unit about twofold. delta delta Cp (YB-1 minus CDIP) (no concentration beside the values). 30,000 compounds, 0.37% hits. AID 434959;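 active = delta delta Cp rounded down to an integer at or above 3, about 3 SD of DMSO wells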;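 note: higher means less YB-1 transcript or more CDIP transcript relative to DMSO; stock transfer was 100 nL into about 100 µL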
An asterisk follows results filed as active; . = no result given. An excerpt, so the mix of outcomes need not match the whole.

1	COc1ccc(C2=NN(C(=O)CCC(=O)O)C(c3cccs3)C2)cc1 (stereo unspecified)
2	COc1ccc(NC(=O)N(C)C[C@@H]2Oc3ccc(NC(=O)NC(C)C)cc3CC(=O)N([C@@H](C)CO)C[C@@H]2C)cc1
3	Cc1c(O)cc2c(c1O)C(=O)CC(c1ccccc1)O2 (stereo unspecified)
4	COc1ccc(S(=O)(=O)Nc2cccc3c2O[C@H](CN(C)Cc2ccc(-c4ccccc4)cc2)[C@@H](C)CN([C@@H](C)CO)C3=O)cc1
5	C[C@@H]1CCCCO[C@H](CN(C)C(=O)CCC(F)(F)F)[C@@H](C)CN([C@H](C)CO)C(=O)c2cc(NC(=O)CCCCCC(=O)Nc3ccccc3N)ccc2O1
6	C[C@@H]1CN([C@H](C)CO)C(=O)Cc2cc(NS(=O)(=O)c3ccc(Cl)cc3)ccc2O[C@H]1CN(C)CC1CC1
7	C[C@H]1CN([C@@H](C)CO)C(=O)Cc2cc(NC(=O)C3CCCCC3)ccc2O[C@H]1CN(C)S(=O)(=O)c1ccccc1
8	COc1ccc(/C=C/C(=O)c2c(OC)cc(OC)c(CC=C(C)C)c2OC)cc1
9	Cc1ccc(S(=O)(=O)N(C)C[C@@H]2Oc3ccc(NC(=O)Nc4c(C)noc4C)cc3CC(=O)N([C@H](C)CO)C[C@H]2C)cc1
10	Cc1ccc(Sc2sc(=O)n(C)c2S(=O)(=O)c2ccc(C)cc2)cc1

| Assay by compound | 1 | 2 | 3 | 4 | 5 | 6 | 7 | 8 | 9 | 10 |
| --- | --- | --- | --- | --- | --- | --- | --- | --- | --- | --- |
| Hedgehog inh | . | -30.6 | -17.7 | 18.1 | . | -19.1 | -26.7 | 7.1 | -6.1 | . |
| MITF inh | -8.9 | -10.6 | 9.1 | 45.8 | -3.1 | -3.7 | -8.4 | -16.7 | 4.4 | -15.6 |
| PD-1 reverse act | -1.6 | . | -1.2 | . | -1.3 | 1.0 | 1.3 | -0.3 | 0.7 | 0.5 |
| YB-1 expr inh | . | 0.245 | 2.43 | -0.215 | -0.433 | -0.135 | 0.289 | 1.47 | -0.127 | 0.0673 |

11	Cc1noc(C)c1NC(=O)Nc1cccc2c1O[C@@H](CN(C)Cc1ccc(C(=O)O)cc1)[C@H](C)CN([C@H](C)CO)C2=O
12	CCCCc1c(O)c2cccc3c4ccccc4n(c1=O)c23
13	COC(=O)c1cccc(NC(=O)CSc2nc3cc4ccccc4cc3[nH]2)c1
14	COc1ccc(NC(=O)N(C)C[C@H]2Oc3ccc(NS(=O)(=O)c4ccc(F)cc4)cc3CC(=O)N([C@H](C)CO)C[C@H]2C)cc1
15	C[C@H]1CN([C@@H](C)CO)C(=O)c2cc(NC(=O)Nc3ccc4c(c3)OCO4)ccc2O[C@H]1CN(C)C(=O)Nc1ccc(F)cc1
16	C[C@@H]1CN([C@H](C)CO)C(=O)c2cc(NC(=O)CCN3CCOCC3)ccc2O[C@@H]1CN(C)CC1CCCCC1
17	CS(=O)(=O)N(CC(=O)Nc1ccccc1C(F)(F)F)c1cccc(F)c1
18	Cc1ccc(NC(=O)CSc2c(C)n[nH]c2C)cc1Cl
19	C[C@@H]1CN([C@H](C)CO)C(=O)c2cc(NS(=O)(=O)c3ccccc3)ccc2O[C@@H]1CN(C)Cc1ccc(Cl)c(Cl)c1
20	C[C@@H]1CCCCO[C@@H](CN(C)C(=O)CCCN(C)C)[C@@H](C)CN([C@H](C)CO)C(=O)c2cc(NC(=O)CCCN(C)C)ccc2O1

| Assay by compound | 11 | 12 | 13 | 14 | 15 | 16 | 17 | 18 | 19 | 20 |
| --- | --- | --- | --- | --- | --- | --- | --- | --- | --- | --- |
| Hedgehog inh | -8.9 | 21.7 | . | 9.0 | -16.1 | -15.5 | . | . | . | . |
| MITF inh | -6.9 | 65.5 | -27.6 | -4.0 | -1.6 | -7.8 | 6.3 | -10.7 | -6.7 | -2.6 |
| PD-1 reverse act | 1.5 | -1.0 | 1.4 | 1.0 | -0.7 | 0.9 | -1.2 | 1.4 | -1.3 | 1.1 |
| YB-1 expr inh | -0.378 | -0.271 | . | -0.097 | -0.22 | 0.294 | . | . | 0.213 | -0.551 |

Part of the list above, as a markdown table.
| entry | canonical_smiles | Hedgehog inh | MITF inh | PD-1 reverse act | YB-1 expr inh |
| --- | --- | --- | --- | --- | --- |
| 14 | COc1ccc(NC(=O)N(C)C[C@H]2Oc3ccc(NS(=O)(=O)c4ccc(F)cc4)cc3CC(=O)N([C@H](C)CO)C[C@H]2C)cc1 | 9.0 | -4.0 | 1.0 | -0.097 |
| 15 | C[C@H]1CN([C@@H](C)CO)C(=O)c2cc(NC(=O)Nc3ccc4c(c3)OCO4)ccc2O[C@H]1CN(C)C(=O)Nc1ccc(F)cc1 | -16.1 | -1.6 | -0.7 | -0.22 |
| 16 | C[C@@H]1CN([C@H](C)CO)C(=O)c2cc(NC(=O)CCN3CCOCC3)ccc2O[C@@H]1CN(C)CC1CCCCC1 | -15.5 | -7.8 | 0.9 | 0.294 |
| 17 | CS(=O)(=O)N(CC(=O)Nc1ccccc1C(F)(F)F)c1cccc(F)c1 | . | 6.3 | -1.2 | . |

Compounds shown so far with a COOH group, in the order listed:
1	COc1ccc(C2=NN(C(=O)CCC(=O)O)C(c3cccs3)C2)cc1 (stereo unspecified)
11	Cc1noc(C)c1NC(=O)Nc1cccc2c1O[C@@H](CN(C)Cc1ccc(C(=O)O)cc1)[C@H](C)CN([C@H](C)CO)C2=O

| Assay by compound | 1 | 11 |
| --- | --- | --- |
| Hedgehog inh | . | -8.9 |
| MITF inh | -8.9 | -6.9 |
| PD-1 reverse act | -1.6 | 1.5 |
| YB-1 expr inh | . | -0.378 |

(cont.)
21	COc1ccc(S(=O)(=O)Nc2ccc3c(c2)C(=O)N([C@@H](C)CO)C[C@H](C)[C@@H](CN(C)S(=O)(=O)c2cccs2)O3)cc1
22	Cc1cc2nc(-c3cccc(NC(=O)COc4ccccc4C)c3C)oc2cc1C
23	CCNc1nc(SCCOc2ccccc2)nc(N(C)C)n1
24	Cc1nnc(SCC(=O)Nc2ccccc2C#N)s1
25	Cc1cc(C(=O)Nc2cccc3c2O[C@H](CN(C)S(=O)(=O)c2ccc(Cl)cc2)[C@H](C)CN([C@@H](C)CO)C3=O)n(C)n1
26	CNC[C@@H]1Oc2c(NS(=O)(=O)c3ccc(OC)cc3)cccc2C(=O)N([C@H](C)CO)C[C@H]1C
27	CCOC(=O)C1=C(C)N(C)C(=O)N(C)C1c1ccccc1 (stereo unspecified)
28	CC1CCc2c(sc3nc(SC(C)C(=O)Nc4ccccc4)nc(N)c23)C1 (stereo unspecified)
29	Cc1nnc(SCC(=O)Nc2ccccc2C(C)C)s1
30	CNC(=O)Nc1cccc(-c2ccnc(C)n2)c1
31	C[C@@H]1CN([C@H](C)CO)C(=O)Cc2cc(NC(=O)Cn3cnnn3)ccc2O[C@@H]1CN(C)C
32	CSc1nc(N)n2nc(-c3ccccc3)cc2n1
33	Cc1ccc(S(=O)(=O)N(C)C[C@H]2Oc3c(NS(=O)(=O)c4ccc(Cl)cc4)cccc3C(=O)N([C@@H](C)CO)C[C@@H]2C)cc1

| Assay by compound | 21 | 22 | 23 | 24 | 25 | 26 | 27 | 28 | 29 | 30 | 31 | 32 | 33 |
| --- | --- | --- | --- | --- | --- | --- | --- | --- | --- | --- | --- | --- | --- |
| Hedgehog inh | -16.2 | . | . | . | 21.9 | -2.1 | 24.2 | . | . | 9.5 | -17.7 | . | 4.4 |
| MITF inh | 7.7 | 31.1 | -16.8 | 1.2 | -2.7 | -4.7 | -12.8 | -46.9 | -9.2 | 4.9 | -3.3 | 0.8 | 9.0 |
| PD-1 reverse act | -0.8 | 11.0 | -0.8 | 0.2 | -1.6 | 2.0 | -1.9 | 0.2 | 0.9 | -0.1 | . | -0.2 | -1.7 |
| YB-1 expr inh | -0.0734 | . | . | . | -0.575 | 0.0929 | 0.305 | . | . | -0.13 | 0.0952 | -0.078 | 0.865 |

Source: PubChem (Broad Institute)
